Screens from PubChem.
SARS PLP yeast – blocks SARS-CoV papain-like protease in a yeast assay. S. cerevisiae expressing SARS-CoV PLpro, growth rescue; control for the full effect not named in the record. Potency, µM (series often up to 32.9 µM), without a hit: at the top dose activity, positive = growth rescue. 0.19% of 330,000 active. AID 485353; also: 0% is about no effect; nearly all actives have a fitted effect of over 55% in size; growth read by luminescence after 48 h
NS1 function inh – blocks influenza NS1 protein function; 0.4% of 270,000 active; S. cerevisiae slowed by influenza A NS1, growth recovery by OD600; Potency, µM (series often up to 46.1 µM), for inactives: at the top dose activity, positive = more growth; also: actives are rising curves; nearly all actives have a fitted effect of over 50% in size
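Growth recovery, yeast-based: influenza A NS1 expressed in S. cerevisiae causes slow growth, and suppressors are detected by OD600. The parent strain without NS1 is used as positive control.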
MARV entry inh – blocks Marburg virus binding to or entry into cells | Potency, µM (titrated, usually from 37.8 µM), for inactives: at the highest dose activity change, negative = inhibition, usual class: inhibitors | 1.8% of 300,000 active | Marburg virus pseudotyped entry inhibition, cell reporter; control for the full effect not named in the record; about a third of the inactives were read at about 46 µM; active = well fitted inhibition curve with a large enough effect; inconclusive = small, poorly fitted or top-dose-only effect, or effect the other way; inactive = flat fitted curve, though single readings scatter; tested in HEK293 cells; about a fifth of its hits are not listed in these tables; also: % is scaled to controls: 0 for no effect and ±100 for the full control effect; luciferase read-out
Lassa entry inh – inhibitors of Lassa virus binding or cell entry; Lassa virus pseudotype entry inhibition, cell reporter; control for the full effect not named in the record; 1.2% of 300,000 active; Potency, µM (titrated, usually from 37.9 µM), for inactives: at the top dose activity change, negative = inhibition, actives largely listed as inhibitors; AID 540256; active means well fitted inhibition curve with a large enough effect; inconclusive means small, poorly fitted or top-dose-only effect, or effect the other way; inactive means flat fitted curve, though single readings scatter; tested in HEK293 cells; also: % is scaled to controls: 0 for no effect and ±100 for the full control effect; nearly all actives have a fitted effect of over 50% in size; luciferase read-out
RE007 growth inh – less growth of the S. pombe RE007 Vpr strain. S. pombe RE007 Vpr strain, BacTiter-Glo ATP luminescence, 24 h; control for the full effect not named in the record. Potency, µM (series often up to 92.2 µM), for inactives: top-dose activity change, negative = less growth. 0.21% of 360,000 active. AID 651644; active = well fitted falling curve with a large enough effect; inconclusive = small, poorly fitted or top-dose-only effect; inactive = no such curve, though single readings can be large or run the other way;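 also: % is scaled to controls: 0 for no effect and ±100 for the full control effect; nearly all actives have a fitted effect of over 50% in size; the assay follows cell death caused by Vpr and the record does not say whether a fall means rescue or toxicity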
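Fission yeast strain RE007, carrying one chromosomally integrated HIV-1 vpr copy, was seeded at OD 0.01 in PMG+AL medium with 23 nL pinned compound. After 24 h at 30 °C and 99% humidity, viability was read by BacTiter-Glo luminescence.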
Cruzain inh Det – cruzain (T. cruzi) inhibition with detergent; AID 1478; 0.43% of 200,000 active; purified cruzain, Z-FR-AMC fluorescence, 0.01% Triton; Potency, µM, inactives show max response, negative = inhibition, usual class: inhibitors; P25779; active = well fitted curve in the direction sought with a large enough effect; inconclusive = small, poorly fitted or top-dose-only effect, or another doubt; inactive = no such curve, though single readings can be large; an effect the other way counts as inactive or inconclusive;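 also: plate controls were neutral wells for no effect and buffer without enzyme for full effect; nearly all actives have a fitted effect of over 40% in size; top concentration of the series not given in the record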
Target sequence (P25779 123-467 limits assumed): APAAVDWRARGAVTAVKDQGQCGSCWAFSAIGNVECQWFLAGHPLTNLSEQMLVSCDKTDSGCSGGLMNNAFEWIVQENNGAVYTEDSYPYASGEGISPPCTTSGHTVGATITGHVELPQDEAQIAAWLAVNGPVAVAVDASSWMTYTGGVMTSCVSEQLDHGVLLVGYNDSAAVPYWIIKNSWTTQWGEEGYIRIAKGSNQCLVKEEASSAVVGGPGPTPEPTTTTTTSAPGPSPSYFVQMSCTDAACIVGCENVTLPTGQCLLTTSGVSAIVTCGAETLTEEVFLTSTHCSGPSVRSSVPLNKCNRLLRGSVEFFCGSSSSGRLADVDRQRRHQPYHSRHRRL
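Cysteine protease activity tested under reducing, mildly acidic conditions (100 mM sodium acetate pH 5.5, 5 mM DTT) plus 0.01% Triton X-100. Cruzain 1.5 nM; substrate Z-FR-AMC 2 uM; 15 min compound preincubation at room temperature.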
Cruzain noTriton – inhibitors of Trypanosoma cruzi cruzain without detergent. P25779. purified cruzain, Z-FR-AMC fluorescence, no detergent. Potency, µM, without a hit: max response, negative = inhibition, usual class: inhibitors. 2.3% of 200,000 active. AID 1476; active = well fitted curve in the direction sought with a large enough effect; inconclusive = small, poorly fitted or top-dose-only effect, or another doubt; inactive = no such curve, though single readings can be large; an effect the other way counts as inactive or inconclusive;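 also: plate controls were enzyme without inhibitor for no effect and buffer without enzyme for full effect; nearly all actives have a fitted effect of over 40% in size; top concentration of the series not given in the record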
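Purified cruzain at 1.5 nM, pre-incubated 15 min with compound at room temperature in 100 mM sodium acetate pH 5.5, 5 mM DTT, 0.00005% Triton X-100. Reaction started with 2 uM Z-FR-AMC; AMC fluorescence increase over 60 s gives rate.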
2A StopGo – lowers the luciferase signal of an FMDV 2A StopGo reporter. Potency, µM (top dose mostly 57.9 µM), for inactives: top-dose signal change, negative = less light. 1.2% of 410,000 active. AID 1159524. human cells with a luciferase reporter of 2A StopGo recoding; control for the full effect not named in the record; active = well fitted falling curve with a large enough effect; inconclusive = small, poorly fitted or top-dose-only effect; inactive = no such curve, though single readings can be large or run the other way; tested in HEK293T cells; also: % is scaled to controls: 0 for no effect and ±100 for the full control effect; nearly all actives have a fitted effect of over 45% in size; luciferase light after 4 h
Numbers without * were called inactive; ? = inconclusive; . = no result given; [ ] = remark or other dose. Unless noted, calls follow the shape of the dose curve; as a rule, active means well fitted rising curve with a large enough effect; inconclusive means small, poorly fitted or top-dose-only effect; inactive means no such curve, though single readings can be large or run the other way. Potency is read from the fitted curve at half-maximal effect.

Structure	SARS PLP yeast	NS1 function inh	MARV entry inh	Lassa entry inh	RE007 growth inh	Cruzain inh Det	Cruzain noTriton	2A StopGo
CCN(C(=O)Cc1ccc(NC2=NC3CS(=O)(=O)CC3S2)cc1)c1ccccc1 (configuration not stated)	7%	16%	.	.	-7%	.	.	-7%
COc1ccc(S(=O)(=O)NC2CC(=O)N(c3ccc4c(c3)OCCO4)C2)cc1 (configuration not stated)	-7%	.	6%[46.1 µM]	11%	-6%	.	.	-2%
CC1CCCCC12NC(=O)N(CC(=O)c1ccc3c(c1)OCO3)C2=O (configuration not stated)	1%	.	19%	5%	2%	.	.	25%
COc1ccc(-c2csc(CCn3nc(C)cc3C)n2)cc1	0%	.	?	?	15%	.	.	-29%
CN(C)c1ccc(CNS(=O)(=O)c2ccc3c(c2)NC(=O)CS3)cc1	-7%	11%	.	.	-12%	.	.	-3%
Cc1ccccc1S(=O)(=O)Cc1ccc(C(=O)N2CCN(c3ccc(F)cc3)CC2)o1	-8%	-6%	?	?	12%	-0.2%	?	?
CCCCCn1c(NC(=O)c2ccco2)c(S(=O)(=O)c2ccc(C)cc2)c2nc3ccccc3nc21	-2%	18%	?	11%	-3%	-11%	-9%	4%
CSc1ccc(CN2CCN(C(=O)COc3cccc(C)c3)CC2)cc1	0%	.	1%	?	-13%	-0.9%	-4%	?
O=[N+]([O-])c1cccc(NC(=S)Nc2nc(-c3ccccc3Cl)cs2)c1	-7%	2%	?	?	5%	.	.	-19%
CCOC(=O)c1sc(NS(=O)(=O)c2ccc(NC(C)=O)cc2)nc1C	6%	10%	-1%	-6%	-13%	0.9%	-11%	47%[activator]
COC(=O)C1=C(C(=O)OC)SC2(S1)C(C(=O)OC)=C(C(=O)OC)Sc1c2ssc1=O	.	.	?	11µM*	?	.	.	32µM*
O=Cc1cn(CC(O)CN2CCCCC2)c2ccccc12 (configuration not stated)	0%	2%	?	14%	-2%	.	.	-1%
O=C(CNC(=O)c1cccc(F)c1)N/N=C/c1cc(Br)ccc1OCc1ccccc1	10%	?	?	5%	6%	-0.2%	?	0%
COc1ccc(NC(=O)CN2CCCN(Cc3ccccc3)S2(=O)=O)cc1	.	.	.	-15%[46.1 µM]	.	-3.0%	14%	-4%
O=C(c1ncc[nH]1)c1ccccc1C(=O)N1CCOCC1	-4%	1%	-1%	0%	?	-1.1%	9%	9%

(listing goes on)
Structure	SARS PLP yeast	NS1 function inh	MARV entry inh	Lassa entry inh	RE007 growth inh	Cruzain inh Det	Cruzain noTriton	2A StopGo
Nc1ccc(S(=O)(=O)Nc2nccc(/C=C/c3ccccc3F)n2)cc1	-1%	.	?	?	-7%	.	.	28%
O=Cc1nccc2ccccc12	.	.	-5%	-2%[46.1 µM]	0%	.	.	-17%
O=C(O)CC(Cc1ccccc1)(C(=O)O)c1ccccc1 (configuration not stated)	1%	9%	.	.	-4%	.	.	-12%
COc1ccc(-c2oc3ncnc(NCCCN4CCOCC4)c3c2-c2ccc(OC)cc2)cc1	4%	-46%	?	-32%	-17%	-3.2%	?	?
CCCC(O)(c1ccc(Cl)cc1)C(CN1CCOCC1)c1ccc(Cl)cc1 (configuration not stated)	-1%	1%	7.9µM*	-16%[46.1 µM]	5%	.	.	?
CC(C)Cn1c(C23CC4CC(CC(C4)C2)C3)n[nH]c1=S	3%	-20%	.	.	-11%	.	.	?
CN(C)/C=C1\NC(=S)N(c2ccc(Cl)cc2)C1=O	2%	-7%	17%[46.1 µM]	-5%	-4%	.	.	5%
COC(=O)c1cc2c(cc1Cl)SC(=NCCCN1CCOCC1)NS2(=O)=O	5%	7%	9%	17%	0%	-5.5%	?	-7%
CCc1nn(CC(=O)NC2CC2)c(=O)c2cc3c(OC)cccc3n12	.	.	-14%[46.1 µM]	.	.	1.0%	16%	0%
Cc1cc(C(=O)Nc2ccccc2C(=O)N2CCCCC2)ccc1[N+](=O)[O-]	-2%	3%	?	?	22%	.	.	16%
Cc1cc(F)ccc1NC(=O)CCS(=O)(=O)c1cc2c3c(c1)CCN3C(=O)CC2	.	.	.	19%[46.1 µM]	.	-4.0%	1%	1%
COCCn1c(-c2ccc(C#N)cc2)nc2c1c(=O)[nH]c(=O)n2Cc1ccccc1	3%	0%	-5%[46.1 µM]	?	15%	.	.	-13%
COc1ccc(C(=O)NCCc2nnc3ccc(SCC(=O)N4CCOCC4)nn23)cc1	1%	-4%	.	.	-5%	.	.	-4%
CN(C)CCCNCCCNC(=O)/C=N/O	1%	3%	7%	8%	-5%	0.9%	3%	.
CCC(C)NS(=O)(=O)c1ccc(NC(=O)C2CCCO2)cc1 (configuration not stated)	-1%	4%	-9%[46.1 µM]	-14%	3%	.	.	-6%

New compounds follow.
Structure	SARS PLP yeast	NS1 function inh	MARV entry inh	Lassa entry inh	RE007 growth inh	Cruzain inh Det	Cruzain noTriton	2A StopGo
CCOC(=O)c1c(NC(=O)/C=C/c2ccc(OCC)cc2)sc(C(C)=O)c1C	.	.	8%[46.1 µM]	10%[46.1 µM]	.	-2.1%	3%	-11%
Nc1ccc(N2CCOCC2)c2nonc12	-2%	3%	.	.	-15%	.	.	-3%
CN(C)c1ccc(/C=C/C=C/c2sc3ccccc3[n+]2C)cc1	-1%	-65%	?	?	?	.	.	40µM*
N=c1oc2cc(O)ccc2cc1C(=O)Nc1ccc(Br)cc1	-25%	-60%	?	?	-13%	.	.	-16%
CC(=O)Nc1ccc(S(=O)(=O)Oc2ccc(C(=S)N3CCCCC3)cc2)cc1	19%	2%	-40%	?	0%	-5.9%	?	?
NC(=O)c1ccc(NC(=O)CS(=O)(=O)c2cn(CC(=O)N3CCCC3)c3ccccc23)cc1	5%	-2%	11%	15%	-5%	.	.	-17%
CCn1c(N)c(C(=O)NCCOC)sc1=S	7%	-16%	0%	-10%	10%	-11%	-4%	-5%
N#CCc1ccc(NC(=O)c2ccc(S(=O)(=O)N3CCCC3)cc2)cc1	-1%	-6%	-7%[46.1 µM]	-15%[46.1 µM]	32%	.	.	-5%
CCOC(=O)c1sc(NC(=O)C2CC(=O)N(c3ccccc3C)C2)nc1C (configuration not stated)	-1%	-2%	-24%[46.1 µM]	-15%[46.1 µM]	2%	.	.	-11%
Cc1ccc(-c2cc(C(=O)Nc3cnn(C(C)C)c3)no2)cc1	2%	-11%	2%	11%	9%	0.0%	-11%	39%[activator]
CCOC(=O)C1CCN(C(=O)c2cccc(NS(=O)(=O)c3ccc(F)c(F)c3)c2)CC1	1%	.	-12%[46.1 µM]	.	4%	.	.	22%
CCn1c(=O)cc(SCC(=O)Nc2cccc(SC)c2)c2ccccc21	?	?	-14%	?	4%	2.0%	7%	20µM*
CC(=O)NC(Cc1ccc(N(CCCl)CCCl)cc1)C(=O)O (configuration not stated)	26%	11%	?	-29%	-2%	0.7%	4%	.
CSc1nsc(SC)c1C(=O)OCC(F)(F)F	6%	6%	1%	34%	-8%	-1.2%	-14%	-12%
O=C1Nc2ccccc2C(c2ccccc2)=NC1O (configuration not stated)	-3%	2%	.	.	4%	.	.	-7%

(continued)
Structure	SARS PLP yeast	NS1 function inh	MARV entry inh	Lassa entry inh	RE007 growth inh	Cruzain inh Det	Cruzain noTriton	2A StopGo
O=C(Cc1cccs1)Nc1ccc(Cl)cc1	-4%	-7%	5%	19%	-14%	-1.2%	-8%	27%
Cc1ccc(/C=N\NC(=O)C2CN(S(=O)(=O)c3ccccc3)CCN2S(=O)(=O)c2ccccc2)cc1 (configuration not stated)	16%	?	?	?	-3%	-4.1%	?	6%
CC(C)CN(Cc1cc2ccccc2[nH]c1=O)C(=O)c1cccnc1	-5%	5%	2%	7%	4%	0.5%	-1%	10%
O=S(=O)(c1ccccc1F)N1CCN(CCc2ccccc2)CC1	3%	0%	?	-13%	0%	.	.	?
C=CCSc1nc2sc(C)c(C)c2c(=O)[nH]1	-7%	4%	.	.	4%	-4.0%	-24%	1%
O=C(O)CN=C1NC2(CCCC2)Cc2ccccc21	0%	14%	1%	14%	-5%	4.6%	1%	16%
Cc1ccc(-n2c(-c3ccc(Cl)cc3)n[nH]c2=S)cc1	1%	28%	.	.	2%	.	.	-13%
C(/C=C/c1ccco1)=N/N1CCN(c2ccccc2)CC1	7%	6%	-27%	?	-28%	0.4%	9%	-2%
COc1cccc(NS(=O)(=O)c2ccc3c(c2)C2C=CCC2C(c2ccc(C(=O)O)cc2)N3)c1 (configuration not stated)	14%	10µM*	?	?	-25%	?	?	31%[activator]
O=C(OCCN(C1=NS(=O)(=O)c2ccccc21)c1ccccc1Cl)c1ccc(Cl)cc1	-4%	6%	?	?	4%	2.3%	?	11%
CCN(CC)C(=O)CSc1nc(N)c(-c2ccccc2)c(=O)[nH]1	-1%	3%	7%[46.1 µM]	13%	-24%	.	.	-4%
COc1cccc(OCC(O)CN2CCC(C)CC2)c1 (configuration not stated)	12%	-2%	5%[46.1 µM]	-4%	-10%	4.2%	-2%	-3%

Entries of single compounds as entered above. Order of values: SARS PLP yeast | NS1 function inh | MARV entry inh | Lassa entry inh | RE007 growth inh | Cruzain inh Det | Cruzain noTriton | 2A StopGo
O=C(Cc1cccs1)Nc1ccc(Cl)cc1 in the list: -4% | -7% | 5% | 19% | -14% | -1.2% | -8% | 27%
O=C(OCCN(C1=NS(=O)(=O)c2ccccc21)c1ccccc1Cl)c1ccc(Cl)cc1 in the list: -4% | 6% | ? | ? | 4% | 2.3% | ? | 11%
O=C(O)CN=C1NC2(CCCC2)Cc2ccccc21 in the list: 0% | 14% | 1% | 14% | -5% | 4.6% | 1% | 16%
